# GIV Gai3 FP: GIV-Galpha-i interaction inhibition | Galpha-i3/FITC-GIV peptide fluorescence polarization, 90 min; stronger effect = lower value; scaled: aluminum fluoride 0%, vehicle 100% | percent of control (FP), % (test concentration not listed) | 210,000 tested, 0.42% active | AID 1224905;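 active means replicate mean at 85% of control or lower, very high polarization wells dropped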;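 further: wells of about 15 µL received 100 nL stock; the first replicate is given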
# Target sequence (P08753 whole entry, looked up): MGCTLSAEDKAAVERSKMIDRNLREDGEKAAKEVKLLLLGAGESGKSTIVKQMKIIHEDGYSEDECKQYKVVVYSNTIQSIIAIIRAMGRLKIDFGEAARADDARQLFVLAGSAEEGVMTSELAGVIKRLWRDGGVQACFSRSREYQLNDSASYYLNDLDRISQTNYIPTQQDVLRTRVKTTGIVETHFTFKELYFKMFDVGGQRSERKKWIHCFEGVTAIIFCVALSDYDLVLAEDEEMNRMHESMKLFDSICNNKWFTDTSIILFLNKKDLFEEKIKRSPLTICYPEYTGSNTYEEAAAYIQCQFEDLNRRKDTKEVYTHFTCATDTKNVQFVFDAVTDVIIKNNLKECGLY
# HCMV UL50-53 inh: disrupts HCMV UL50-UL53 complex binding | HTRF UL50-UL53 interaction, normalized percent inhibition | 190,000 tested, 0.15% active | inhibition, % (concentration not given with the values) | AID 1918969;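 active means both replicates at 50% or more, plus weaker picks with an unusually low signal ratio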;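 further: stock transfer was 100 nL into about 20 µL; 0% = negative control wells and 100% = wells with untagged competitor protein; inactives centre near -12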
# Sa growth inh: blocks Staphylococcus aureus growth; relative growth, % (no concentration beside the values); S. aureus RN4220 growth, OD600, 20 h, 42 °C; stronger effect = lower value; 170,000 tested, 0.53% active;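 active means growth at 42 °C up to 50% and 20 or more points under that at 30 °C, or under 10% at both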;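 further: 300 nL library stock went into each well; scaled to the means of positive and negative controls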
# Sa growth inh second temp: second read-out of Sa growth inh, no call of its own (marks repeat the call); relative growth, %; measured here: growth at 30 °C;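 optical density after 20 h as mean of two plates; 100% = untreated growth and lower means inhibition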
# Starred values were filed as active, the others as inactive; x = no result given; & = joins results of further samples.
SMILES,GIV Gai3 FP,HCMV UL50-53 inh,Sa growth inh,Sa growth inh second temp
CN1CCN(C(=O)CCN2C(=O)/C(=C/c3cccs3)SC2=S)CC1,108,-71,x,x
COc1ccc2[nH]cc(CCNC(=O)CC3CCN(C(=O)C4CCCCC4)CC3)c2c1,107,2,x,x
CC1Cc2ccccc2N1C(=O)COC(=O)c1ccccc1NC(=O)c1ccco1 (stereo not drawn),x,-2,108,92
Cc1ccc(CS(=O)(=O)c2ncn[nH]2)cc1,98,0,x,x
Cc1nccc2[nH]c(=O)c(C(=O)NCc3ccc(Cl)cc3)cc12,104,x,104,77
COc1cc(NC(=O)c2cccc3c2C(=O)N(Cc2cccnc2)C3)cc(OC)c1OC,103,-25,75,86
COc1ccc(C(O)c2nccn2Cc2ccccc2)cc1 (stereo not drawn),97,-4,98,77
CCOC(=O)c1ccc2ncc(C(=O)OCC)c(Nc3ccc(C)c(Br)c3)c2c1,130,-28,103,88
COc1ccc(OC)c(NC(=O)CN2C(=O)CCc3cc(S(=O)(=O)N4CCCCC4)ccc32)c1,105,x,94,89
CSc1ccc(C(=O)O)cc1,x,-2,100,100
Cc1ccc(Cn2cccc(C(=O)N3CCc4ccccc43)c2=O)cc1,104,-10,111,89
Oc1c(C(c2ccc(F)cc2)N2CCCC2)sc2nc(-c3ccco3)nn12 (stereo not drawn),102,x,129,81
Cc1nn(CC(=O)NCc2ccc(N(C)C)cc2)c(=O)c2c(C)n(-c3ccc(Cl)cc3)nc12,103,x,93,92
C=CCn1c(C)cc(C(=O)CSC2=Nc3ccccc3C3CC=NN23)c1C (stereo not drawn),x,-24,91,78
O=C(Cc1ccccc1)Nc1c2c(nn1-c1ccc(Cl)cc1)CSC2,94,x,88,68
CCc1cc2c(-n3nc(C)cc3C)ncnc2s1,x,-4,82,94
Cc1ccccc1C(=O)Oc1c(-c2ccco2)oc2ccccc2c1=O,108,-20,120,96
CC(=NCC(C)O)c1cc(Cl)ccc1O (stereo not drawn),100,x,118,85
Cc1cc(C)cc(NC(=O)c2cccc(NC3=NC4CS(=O)(=O)CC4S3)c2)c1 (stereo not drawn),104,-12,x,x
Cc1ccc(OCC(=O)Nc2ccc3nc(SCC(=O)N4CCOCC4)sc3c2)cc1,102,-28,104,89
O=C(CSc1nccn1-c1ccc(F)cc1)Nc1cccc2ccccc12,99,x,90,85
CCCOc1ccc(NC(C)=O)cc1,99,1,91,80
Nn1cnnc1SCc1ccc(F)cc1,105,18,92,102
CCCCn1cnc2c1c(=O)[nH]c(=O)n2CCC,x,2,85,96
COC(=O)CNC(c1ccccc1)c1cc(Br)ccc1N=Cc1ccccc1O (stereo not drawn),102,x,99,86
SMILES,GIV Gai3 FP,HCMV UL50-53 inh,Sa growth inh,Sa growth inh second temp
CCOC(=O)C1CCCN(C(=O)CCc2ccccc2)C1 (stereo not drawn),x,-11,111,87
CCOC(=O)c1ccccc1NC(=O)Cn1c(=O)n(-c2cccc(C)c2)c(=O)c2c1c1cc(C)ccc1n2C,101&101,-5&-27,88,86
CC(=O)c1ccc(NC(=O)CSc2nccn2Cc2ccco2)cc1,103,x,124,86
CC(C)CCSc1nc2ccccc2n1Cc1cc(=O)n2ccsc2n1,x,-16,98,95
CCOC(=O)/C=c1\s/c(=C\c2ccccn2)c(=O)n1CC(=O)N1c2ccccc2CC1C (stereo not drawn),x,-23,90,79
Cc1nc2cc(-c3ccccc3)nn2c(C)c1CCC(=O)Nc1ccc(F)cc1F,104,-10,81,88
COc1cccc2c1OC1(C)C(C(=O)Nc3ccc(C)cc3C)C2NC(=S)N1c1ccc(F)cc1 (stereo not drawn),103,x,92,89
CN(CC(=O)Nc1ccc(F)c(F)c1F)C(=O)c1ccc(N2CCCC2=O)cc1,x,-2,96,98
Cc1ccc(C)c(CN2C(=O)CSc3ccc(C(=O)NCCc4ccc(Cl)cc4)cc32)c1,102,-6,96,95
Cc1cc(C)c2c(N)c(S(=O)(=O)c3ccccc3)sc2n1,105,-13,114,98
CCCCCCNC(=O)C1CCN(c2cc(-c3ccc(F)cc3)ncn2)CC1,103,-30,x,x
CC1CCCCN1CCNC(=O)c1cccn2c(=O)c3c4c(sc3nc12)CCCC4 (stereo not drawn),104,x,137,68
CCS(=O)(=O)c1nc(S(=O)(=O)c2ccc(C)cc2)c(NCc2ccco2)s1,114,5,113,105
O=S(=O)(Cc1ccco1)Cc1nc(-c2ccc(Cl)cc2)cs1,103,-32,91,87
Cc1ccc(CN(C(=O)COc2cccc(Cl)c2)c2ccccn2)o1,98,-21,98,83
Cc1ccc(C)c(Cn2c3ccccc3c3cnn(CC(=O)NCc4ccccc4)c(=O)c32)c1,104,-5,119,102
COc1ccc(-c2cc(C(=O)N3CCCC3)no2)cc1,99,-1,106,90
Cc1ccc(-c2nnc(Oc3ccc(OCc4ccccc4)cc3)c3ccccc23)cc1,110,5,x,x
NNC(=O)c1ccco1,x,-13,104,84
CC(CCc1ccccc1)N1CCN(c2ccccc2F)CC1 (stereo not drawn),97,-16,97,102
O=C(OCc1nc2ccccc2s1)c1ccc2c(c1)C(=O)N(Cc1ccco1)C2=O,x,-19,101,89
O=C(c1cccs1)N1CCCc2cc(NS(=O)(=O)c3cc(F)ccc3F)ccc21,100,x,84,74
Cc1csc2c(C#N)c(=O)c3c(n12)CCC3,x,-30,103,92
COC(=O)c1cc2c(C(F)(F)F)nn(C)c2s1,99,-28,88,94
COc1cc(NC(=O)CCOc2ccc(F)cc2)cc(OC)c1OC,95,-9,100,90

# Laid out differently: 4 of the compounds above
Molecule: Cc1ccc(C)c(Cn2c3ccccc3c3cnn(CC(=O)NCc4ccccc4)c(=O)c32)c1
- GIV Gai3 FP = 104
- HCMV UL50-53 inh = -5
- Sa growth inh = 119
- Sa growth inh second temp = 102
Molecule: COc1ccc(-c2cc(C(=O)N3CCCC3)no2)cc1
- GIV Gai3 FP = 99
- HCMV UL50-53 inh = -1
- Sa growth inh = 106
- Sa growth inh second temp = 90
Molecule: Cc1ccc(-c2nnc(Oc3ccc(OCc4ccccc4)cc3)c3ccccc23)cc1
- GIV Gai3 FP = 110
- HCMV UL50-53 inh = 5
- Sa growth inh = x
- Sa growth inh second temp = x
Molecule: NNC(=O)c1ccco1
- GIV Gai3 FP = x
- HCMV UL50-53 inh = -13
- Sa growth inh = 104
- Sa growth inh second temp = 84

# Results in Sa growth inh and HCMV UL50-53 inh, for 3 of the compounds above:
SMILES	Sa growth inh	HCMV UL50-53 inh
COC(=O)CNC(c1ccccc1)c1cc(Br)ccc1N=Cc1ccccc1O (stereo not drawn)	99	x
Oc1c(C(c2ccc(F)cc2)N2CCCC2)sc2nc(-c3ccco3)nn12 (stereo not drawn)	129	x
COc1cc(NC(=O)c2cccc3c2C(=O)N(Cc2cccnc2)C3)cc(OC)c1OC	75	-25

# Returning to the listing; the 2 compounds before the break are reprinted first.
SMILES,GIV Gai3 FP,HCMV UL50-53 inh,Sa growth inh,Sa growth inh second temp
COC(=O)c1cc2c(C(F)(F)F)nn(C)c2s1,99,-28,88,94
COc1cc(NC(=O)CCOc2ccc(F)cc2)cc(OC)c1OC,95,-9,100,90
O=C(c1ccccc1)c1cc[n+](Cc2ccccn2)cc1,x,-116,57,57
CCCCOc1ccc(C(=O)Nc2ccc(-c3nc4ccccc4o3)c(O)c2)cc1,105,0,117,96
Cc1cccc(C(CC(=O)NCC2(c3ccccc3)CCCC2)c2ccccc2)c1O (stereo not drawn),105,16,116,102
COCCNC(=O)CCC(=O)NNc1nc2ccccc2c2nc(C)nn12,95,-4,96,91
O=C(Cn1ncc2ccsc2c1=O)N1CCN(c2ccccc2F)CC1,99,-29,110,85
CS(=O)(=O)N(Cc1nnc(SCC(=O)N2CCOCC2)n1-c1ccccc1)c1ccc(F)cc1,98,-5,x,x
CCCCNC(=O)C1CCN(Cc2nc(-c3ccc(OC)c(OC)c3)oc2C)CC1,106,-26,103,89
O=C(O)c1nnn(Cc2ccccc2)c1C(=O)O,100&101,13&2,98,99
Cc1csc2ncnc(N3CCC(C(=O)O)CC3)c12,98,-27,79,89
COc1cccc(OC)c1C(=O)Nc1ccc(N2CCN(C(C)=O)CC2)c(Cl)c1,106,x,43,29
Clc1ccc2c(c1)NC(c1ccncc1)=NC(c1cccs1)=N2,100,-41,103,81
COc1ccc(C(=O)Nc2ccc(C(=O)OCc3cc(=O)n4nc(C(C)C)sc4n3)cc2)cc1,102,x,92,89
CSc1ccc(Cl)cc1NC(=O)C(F)(F)F,92,-19,84,91
CC(=O)Nc1ccc(C(=O)Nc2ccc(CCc3nc4ccccc4n3-c3ccccc3)cc2)cc1,104,-14,x,x
Cn1cnnc1SCC(=O)Nc1ccc(C#N)cc1,102,1,94,89
Cc1ccccc1OCC(=O)NCc1ccccc1,99,-6,117,79
CNC(=O)/C(=C\c1ccccc1)NC(=O)c1ccc(Cl)cc1Cl,x,-16,96,88
Cc1ccc2nc(SCC(=O)c3cc(C)n(C4CC4)c3C)[nH]c2c1,x,-24,81,67
CCCCN(CC)C(=O)c1cc2c(-c3ccc(Cl)cc3)nn(C)c2s1,99,x,87,84
CCOC(=O)C1=c2s/c(=C/c3cccs3)c(=O)n2C(N)=C(C#N)C1c1cccs1 (stereo not drawn),96,-16,98,92
CN=C(Cc1ccccc1)C1=C(O)CC(C)(C)CC1=O,x,24,90,90
COc1ccc(CN2C(=O)c3ccccc3C2C(=O)NCCCN2CC(C)CC(C)C2)cc1 (stereo not drawn),108,x,98,82
COc1ccccc1CNC(=O)CCn1c(=O)c2ccccc2n(CC(=O)NCC2CCCO2)c1=O (stereo not drawn),103,-34,93,85
Cc1ccccc1OCCSc1nc2ncnc(N)c2[nH]1,97,-12,x,x
CCc1cc2c(cc1C(=O)c1ccc(I)cc1)OCCO2,x,-2,99,88
SMILES,GIV Gai3 FP,HCMV UL50-53 inh,Sa growth inh,Sa growth inh second temp
Cc1cccc(N2CCN(C(=O)CN3C(=O)CCn4nc(-c5cn(C)c6ccccc56)cc43)CC2)c1C,105,-23,x,x
CCc1nc2nc3c(c(Nc4ccc(C)c(C)c4)n2n1)CCC3,105,-10,x,x
Cc1ccc(NC(=O)CSc2nc(-c3ccccc3Cl)nc3cc(=O)[nH]n23)c(C)c1,98,x,95,81
CCOc1ccc(-n2nc(CO)c(C(=O)NCc3cccc(OC)c3)n2)cc1,101,-14,104,90
Cc1ccc2nc(C)nc(-c3ccccc3)c2c1,106,x,87,63
CCOC(=O)c1cnc2c(OC)cccc2c1NCC1COc2ccccc2O1 (stereo not drawn),97&106,-27&-52,74,18
CCOc1ccccc1Nc1sc(C(=O)c2ccccc2)c(N)c1C(=O)Nc1ccc(F)cc1,102,x,93,90
N#CCSc1nn(-c2ccc(F)cc2)c(=S)s1,x,-19,74,92
O=C(O)c1ccc(-c2cnc3ccccc3n2)cc1,x,-79,83,84
CCSc1nc2c(sc3ccccc32)c(=O)n1C(C)C,98,2,97,61
CC1=NN(CCC#N)C(c2ccccc2)C1 (stereo not drawn),104,17,99,83
CCSc1ncc2c(=O)n(CC(=O)NCCC3=CCCCC3)cnc2n1,105,-8,x,x
O=C(Nc1ccccn1)c1ccc(Cl)s1,106,14,107,111
Cc1c(Cl)cccc1NC(=O)CN(CCc1ccccc1)S(=O)(=O)c1ccccc1,105,-3,110,90
CCCC(=O)Nc1ccc(NC(=O)c2ccc(OC)cc2)cn1,104,-12,99,71
O=C(C1CC1(c1ccccc1)c1ccccc1)N1CCCCC1 (stereo not drawn),x,-3,68,105
Cc1nnc(-c2ccccc2)nn1,102,-23,48,29
C=CCc1cccc2cc(C(N)=S)c(=N)oc12,x,-15,98,71
CCNC(=O)CSc1n[nH]c(-c2ccc(C)cc2)n1,x,-10,88,93
COC(=O)c1ccc(COc2ccccc2C(N)=O)cc1,x,-12,97,89
COc1ccc(S(=O)(=O)CCc2nnc(NC(=O)c3ccc(OC)c(OC)c3)s2)cc1,98,-22,x,x
CCN(CC)CCN1C(=O)C(=O)/C(=C(/O)c2ccc(OC)cc2C)C1c1ccc(F)cc1 (stereo not drawn),104,-13,117,98
Cc1ccc(S(=O)(=O)N2CCCCC2C)cc1 (stereo not drawn),x,-24,102,91
CCOC(=O)c1[nH]c(C)c(C(=O)OCc2c(C)noc2C)c1C,x,-13,115,83
O=C(Cn1c(-c2ccccc2)noc1=O)Nc1cccc(Cl)c1Cl,104,-2,106,83
SMILES,GIV Gai3 FP,HCMV UL50-53 inh,Sa growth inh,Sa growth inh second temp
O=C(Cc1csc(NC(=O)Nc2ccc(Cl)cc2)n1)Nc1ccc(Cl)cc1,105,-14,x,x
CCOC(=O)c1nc2ccccc2n(C(=O)c2cccc(Cl)c2)c1=O,100,-14,x,x
O=C(Nc1ccc(Cl)cc1)C1Nc2cc(F)ccc2S(=O)(=O)N1 (stereo not drawn),102,-12,x,x
CC(C)Cc1nn2c(=O)cc(COC(=O)CNC(=O)c3ccc(C(C)(C)C)cc3)nc2s1,107,x,86,93
COCCn1nnc2cc(S(=O)(=O)N3CCCC3C(=O)NCCC3=CCCCC3)ccc21 (stereo not drawn),114,12,x,x
COc1ccc(N2CCN(C(=O)c3nn(-c4ccc(OC)cc4)c(=O)n(C)c3=O)CC2)cc1,102,-3,x,x
S=C(Nc1cccnc1)NC1CCCC1,100,0,93,98
COc1ccc(Cl)cc1NCc1cc(=O)n2[nH]c(NCc3ccccc3)nc2n1,97,-34,x,x
CC1CCc2noc(NC(=O)c3ccc(C(C)(C)C)cc3)c2C1 (stereo not drawn),98,-9,x,x
CCOC(=O)c1ccc(NC(=O)c2csnn2)cc1,111,7,90,85
